VDR inhibitor: blocks the human vitamin D receptor; P11473; VDR-SRC2-3 peptide fluorescence polarization, 2 h; Potency, µM, for inactives: max response, negative = inhibition, hits mostly inhibitors; 0.93% of 400,000 active; AID 504847; active = well fitted inhibition curve with a large enough effect; inconclusive = small, poorly fitted or top-dose-only effect, or another doubt; inactive = no such curve, though single readings can be large or run the other way; also: series mostly up to about 120 µM
Target sequence (P11473 whole entry, looked up): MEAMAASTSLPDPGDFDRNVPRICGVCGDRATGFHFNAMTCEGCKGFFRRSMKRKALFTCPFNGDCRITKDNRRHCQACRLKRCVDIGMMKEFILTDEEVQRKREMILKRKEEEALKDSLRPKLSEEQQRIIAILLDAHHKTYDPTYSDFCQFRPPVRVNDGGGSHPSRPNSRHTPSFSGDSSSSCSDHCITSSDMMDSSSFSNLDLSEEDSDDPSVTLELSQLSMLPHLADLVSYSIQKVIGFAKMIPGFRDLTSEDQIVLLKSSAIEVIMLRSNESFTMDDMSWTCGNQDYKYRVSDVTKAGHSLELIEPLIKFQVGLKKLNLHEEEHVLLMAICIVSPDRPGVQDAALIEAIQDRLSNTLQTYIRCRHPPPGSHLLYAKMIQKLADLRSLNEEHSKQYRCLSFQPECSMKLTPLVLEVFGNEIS
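After 23 nl compound addition and a short centrifugation, plates sat for 2 hours at ambient temperature; polarization of fluorescence then indicated loss of VDR binding to peptide SRC2-3.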
* = called active by the depositor; ? = inconclusive; & = joins results of further samples. % is scaled to controls: 0 for no effect and ±100 for the full control effect; potency is read from the fitted curve at half-maximal effect. A portion of the library, so the mix of outcomes need not match the whole.

| SMILES | VDR inhibitor |
| --- | --- |
| CC(=O)NCCNc1nc(-c2cccc(NS(C)(=O)=O)c2)nc2ccccc12 | -9% |
| CC(C)N=C(NC#N)SCc1ccc(Br)cc1 | -7% |
| CCN1C(=O)[C@H]2[C@H]3CN=C(SCc4ccc(C#N)cc4)N3[C@@](Cc3ccccc3)(C(=O)OC)[C@H]2C1=O | -2% |
| CC(Sc1nc2sccc2c(=O)n1-c1ccccc1)C(N)=O (stereo unspecified) | -1% |
| CCCC(=O)OCCNC(=O)c1cc2ccccc2oc1=O | -2% |
| O=C(/C=C/c1ccco1)Nc1cccnc1 | 5% |
| Cc1nnc(SC(C)C)n(N)c1=O | -14% |
| COc1ccccc1CNc1cc(-c2ccoc2)ncn1 | 16µM* |
| Cc1ccc(S(=O)(=O)NCc2ccccc2)cc1C(=O)NC1CCC(C)CC1 (stereo unspecified) | 4% |
| CCOc1ccc(-c2cc(C(=O)N3CCN(c4ccc(C)cc4)C(C)C3)c3ccccc3n2)cc1 (stereo unspecified) | 1% |
| Cn1c(C(=O)N2CCCC(C(=O)NCCc3ccccc3)C2)cc2sccc21 (stereo unspecified) | 6% |
| CCN(CC)Cc1ccccc1CNC(=O)c1cccc(S(=O)(=O)Nc2ccc3c(c2)OCO3)c1 | -11% |

Retrieved by compound from the list above, 3 records:
| SMILES | VDR inhibitor |
| --- | --- |
| CC(=O)NCCNc1nc(-c2cccc(NS(C)(=O)=O)c2)nc2ccccc12 | -9% |
| Cn1c(C(=O)N2CCCC(C(=O)NCCc3ccccc3)C2)cc2sccc21 (stereo unspecified) | 6% |
| O=C(/C=C/c1ccco1)Nc1cccnc1 | 5% |

Following part:
| SMILES | VDR inhibitor |
| --- | --- |
| COc1ccccc1-c1nc(-c2ccc(Br)o2)no1 | 4%&-3% |
| Clc1ccc(CSc2cnnc3ccccc23)cc1Cl | -1% |
| N#CC12CCCCC1CC1CCCCC1(C#N)N2N (stereo unspecified) | ? |
| CCCc1cc2c(OC(=O)CC)c(-c3ccc(C(=O)OCC)o3)c(=O)oc2cc1OC | -12% |
| COc1ccc(C(=O)CSc2nnc(-c3ccco3)n2C)cc1 | -13% |
| Cc1ccc(-c2nn(-c3ccccc3)cc2C(=O)NC2CCC(O)CC2)cc1 (stereo unspecified) | -8% |
| Cc1nccn1CCCNC(=O)c1nc(Cn2cc([N+](=O)[O-])cn2)no1 | -12% |
| O=C1Cc2ccccc2C(=O)N1Cc1cccc(Cl)c1 | -13% |
| CCN1CCN(Cc2cccc(Oc3ccc(Cl)cc3)c2)CC1 | -2% |
| CC(C)Sc1nc2ccc(Br)cc2[nH]1 | 25% |
| Cc1cc(C)cc(N2C(N)=NC(N)=NC2c2ccccc2F)c1 (stereo unspecified) | -1% |
| Cc1ccc(NC(=O)CCOc2ccccc2)cc1S(=O)(=O)Nc1ccccc1Cl | -2% |
| COC(=O)CSc1nc(N)nc(C)c1Cl | 16% |
| CC(=O)c1cc2c(cc1F)C(C)(C)CCC2(C)C | -16% |
| CCCCOCC(O)CN1CCN(C(C)=O)CC1 (stereo unspecified) | 22% |
| COc1ccc(CCN(C)CCCN2CC(c3ccccc3)CC2=O)cc1OC (stereo unspecified) | -15% |
| O=C(CCc1nc2ccccc2c(=O)[nH]1)Nc1ccc(N2CCCCC2)cc1 | 4% |
| COc1cc(C(=O)NC(=S)N(CCC#N)Cc2cccnc2)cc(OC)c1OC | -1% |
| COc1ccc(/C=C/c2noc(-c3ccccc3O)n2)cc1 | -5% |
| COc1cccc(CNC(=O)C2CCN(S(=O)(=O)c3ccc4c(c3)OCCO4)CC2)c1 | -4% |
| COc1cccc(NC(=S)NC2CC(C)(C)NC(C)(C)C2)c1 | -6% |
| O=C(CN(Cc1ccco1)Cc1ccco1)Nc1cc(S(=O)(=O)N2CCCCC2)ccc1Cl | -10% |
| Cc1ccc(-c2nnc(-n3nnc4ccccc43)c3ccccc23)cc1 | -4% |
| COC(=O)c1cc(NC(=O)c2c(Cl)cnn2C)cc(C(=O)OC)c1 | -10% |
| CCCn1cc(CN2CCN(Cc3ccc(C)o3)C(CCO)C2)c(C)n1 (stereo unspecified) | -13% |
| Cn1c2ccccc2c2nnc(SCCN3CCOCC3)nc21 | 10% |
| COc1ccc(C(=O)NCCc2nnc3ccc(SCC(=O)Nc4ccccc4F)nn23)cc1 | 9% |
| CCOC(=O)c1cnc2c(c(C)nn2CC)c1NC1CC1 | -14% |
| O=C(CN1C(=O)c2ccccc2S1(=O)=O)Nc1ncc(Cl)cc1Cl | 26% |
| Cc1ccc(Nc2nnc(C(C)(C)C)c(=O)n2N)cc1 | -2% |
| O=C(O)CCCN1C(=O)c2ccc(Oc3cccc([N+](=O)[O-])c3)cc2C1=O | 10% |
| CCOC(=O)CNC(=O)N1CCc2cc(S(=O)(=O)N3CCC(C)CC3)ccc21 | 9% |
| O=S(=O)(O)C(c1ccccc1)C1(O)CCCCC1 (stereo unspecified) | -3% |
| CNc1nc(SCc2ccc(C)cc2)nc2c1CCCC2 | 5% |
| CCC(C)[C@H](NC(=O)[C@@H]1CSC2c3ccccc3C(=O)N21)C(=O)NCc1ccncc1 (stereo partly specified) | 2% |
| COC(=O)c1ccc(Oc2nc(C)cc(Oc3ccccc3)n2)cc1 | 15% |

Shown with each value named: part of the list above.
CCOC(=O)CNC(=O)N1CCc2cc(S(=O)(=O)N3CCC(C)CC3)ccc21
  VDR inhibitor: 9%

O=S(=O)(O)C(c1ccccc1)C1(O)CCCCC1 (stereo unspecified)
  VDR inhibitor: -3%

CNc1nc(SCc2ccc(C)cc2)nc2c1CCCC2
  VDR inhibitor: 5%

CCC(C)[C@H](NC(=O)[C@@H]1CSC2c3ccccc3C(=O)N21)C(=O)NCc1ccncc1 (stereo partly specified)
  VDR inhibitor: 2%

Other results.
| SMILES | VDR inhibitor |
| --- | --- |
| CCOC(=O)c1cnc2c(C(=O)OC)cccc2c1NCCN1CCOCC1 | 10% |
| CN(CC1CCCO1)S(=O)(=O)c1ccc(C(=O)Nc2ccc3c(c2)OCO3)cc1 (stereo unspecified) | -17% |
| CCn1c(=S)[nH]c2cc(S(=O)(=O)N3CCCCC3)ccc21 | 6% |
| CCOC(=O)/C(=C\c1ccc(C)cc1)NC(=O)c1ccccc1 | 1% |
| Fc1cccc(COc2ccccc2C(=S)N2CCCC2)c1 | -14% |
| CCOC(=O)c1[nH]c2ccccc2c1NC(=S)Nc1cccc(C)c1 | -6% |
| Cc1nnc(SCC(=O)c2ccc(C(C)C)cc2)s1 | 19% |
| O=C(CN1C(=O)NC2(CCCCCCC2)C1=O)NCc1ccc(Cl)cc1 | 9% |
| COC(=O)c1ccc(NS(=O)(=O)c2ccccc2)o1 | 2% |
| CCc1ccc(NC(=O)c2cc(-c3ccc(F)cc3)on2)cc1 | -4% |
| C/C(=N\NC(=O)CNC(=O)c1ccc2c(c1)OCO2)c1ccco1 | 2% |
| O=C(NCCCn1ccnc1)c1cc(-c2ccccc2)on1 | 6% |
| COc1ccc(NC(=O)C(Cc2ccccc2)NS(=O)(=O)c2ccc3c(c2)oc(=O)n3C)c(OC)c1 (stereo unspecified) | 6% |
| COc1ccccc1-n1c(O)c(C=NCc2ccccn2)c2ccccc2c1=O | -18% |
| CC(=O)Nc1ccc(S(=O)(=O)NCC2CCC(C(=O)N3CCCCC3)CC2)cc1 (stereo unspecified) | 3% |
| COc1ccc(NC(=O)C(=O)NCC(c2ccco2)N2CCc3ccccc3C2)cc1OC (stereo unspecified) | -20% |
| CN(C(=O)CCN1CCCO1)C1CCCN(Cc2ccccc2F)C1 (stereo unspecified) | 15% |
| Cc1cc2ncc(-c3cccs3)nc2cc1C | 1% |
| CSCCn1c(C(C)(C)C)cc(C(=O)O)c1C | 3% |
| O=c1[nH]cc([N+](=O)[O-])cc1Br | -2% |
| CCC(C)(C)n1nnnc1C(c1cc2cc(C)cc(C)c2[nH]c1=O)N1CCN(Cc2ccc3c(c2)OCO3)CC1 (stereo unspecified) | -8% |
| COc1ccc(CNC(=O)c2c(C)cc(=O)oc2C)cc1OC | 12% |
| CC1(C)CC(=O)C(C(=O)/C=C/NCCc2ccccc2)C(=O)C1 | 3% |
| O=C(CSc1nnc2scc(-c3ccc(F)cc3)n12)NCc1ccco1 | 1% |
| O=C(NC1CCCCC1)c1c[nH]c2ccc(S(=O)(=O)Nc3ccccc3F)cc2c1=O | -19% |
| CC[C@]12c3[nH]c4ccc(OC)cc4c3CCN1C(=O)C(CC(=O)NCCN1CCOCC1)C[C@@H]2C(=O)N1CCN(C(=O)c2ccco2)CC1 (stereo partly specified) | -18% |
| COc1ccc(N2CCN(c3ccnc4cc(Cl)ccc34)CC2)cc1 | -8% |
| CCCCn1c(N)c(N(CCC(C)C)C(=O)CSc2nncn2-c2ccccc2)c(=O)[nH]c1=O | 4% |
| CC(=O)Nc1cccc(-c2nc3ccccc3c(=O)o2)c1 | -6% |
| Cc1c(C(=O)NCc2ccccc2Cl)cccc1-n1cnc2cccnc21 | 5% |
| CN(CC#CC1(O)c2ccccc2-c2ccccc21)Cc1ccccc1 | -17% |
| Cc1cc(NC(=S)N(Cc2ccc(Br)cc2)Cc2ccc(C(=O)O)cc2)ccc1Cl | 9% |
| COC(=O)c1cc2oc(C)cc2n1Cc1cccc(Cl)c1 | -7% |
| Cc1cc(C(=O)Nc2cccc3cccnc23)ccc1[N+](=O)[O-] | 11% |
| COc1ccc(OC)c(NC(=O)Cc2nn(C)c(=O)c3ccccc23)c1 | 1% |
| COc1cc(CN2CCC(C(=O)NCC(C)(C)CN(C)C)CC2)ccc1OCc1ccccc1 | -6% |
| CCOC(=O)c1[nH]c(C)c(C(=O)NCc2ccc(C)cc2)c1C | -3% |
| CCC1(c2ccccc2)NC(=O)N(CC(=O)N(C)CC(=O)Nc2ccc(F)c(F)c2F)C1=O (stereo unspecified) | 3% |
| Cc1nc(Nc2ccccc2O)c2oc3ccccc3c2n1 | 12% |
| NS(=O)(=O)c1ccc(NC2=CC(c3ccc([N+](=O)[O-])cc3)N(c3ccc(S(N)(=O)=O)cc3)C2=O)cc1 (stereo unspecified) | -27% |
| CC(C)(C=O)Cc1cc(C(C)(C)C)c(O)c(C(C)(C)C)c1 | -5%&8% |
| S=C(Nc1ccc(Br)cc1)N1CCCC1 | 1% |
| CCc1ccccc1NC(=O)Cn1c(=O)ccc2cc(S(=O)(=O)N3CCC(C)CC3)ccc21 | 2% |
| NCCCC[C@H](NC(=O)[C@H](Cc1c[nH]c2ccccc12)NC(=O)[C@H](CC(=O)O)NC(=O)[C@H](Cc1cnc[nH]1)NC(=O)[C@H](CO)NC(=O)[C@H](Cc1c[nH]c2ccccc12)NC(=O)[C@H](Cc1cnc[nH]1)NC(=O)[C@@H]1CCC(=O)N1)C(=O)N1CCC[C@H]1C(=O)NCC(N)=O | -3% |
| CSc1cccc(NS(=O)(=O)c2ccc3c(c2)CCN3C(C)=O)c1 | 8% |
| COC(=O)c1ccc(CNC(=O)c2ccc(COc3ccccc3)cc2)cc1 | -3% |
| O=[N+]([O-])c1ccc(Cl)c(/C=N/N2CCN(C3c4ccccc4-c4ccccc43)CC2)c1 | 3% |
| CCOc1ccc(-c2nnc(SCC(=O)N3CCNC3=O)o2)cc1 | 20% |
| CCC(C(=O)NC1C(=O)N2C(C(=O)O)=C(CSc3nnc(C)s3)CSC12)c1ccccc1 (stereo unspecified) | ? |
| CC(=O)C[C@H](O)CC(=O)[C@H]1OC(=O)[C@@H](C)C/C=C\Cc2ccccc21 | -1% |
| CCN(CC)CC(=O)c1c[nH]c2ccc(OC)cc12 | 2% |
| COCCCNC(=O)Cn1cc(/C=C(\C#N)C(=O)N2CCN(c3ccccc3)CC2)c2ccccc21 | -10% |
| CCN(c1ccccc1C)S(=O)(=O)c1ccc(N2CCCCS2(=O)=O)cc1 | 1% |
| NC(=O)C1CNc2ccccc2O1 (stereo unspecified) | -16% |
| O=C(Cc1ccc([N+](=O)[O-])cc1)Nc1ccc(C(=O)N2CCOCC2)cc1 | -9% |
| COC(=O)c1ccc(C2=NOC(C)(c3nnc(-c4cccc(Cl)c4)o3)C2)cc1 (stereo unspecified) | -13% |
| COc1ccc(C2C(C(=O)c3cccs3)=C(O)C(=O)N2Cc2cccnc2)cc1OC (stereo unspecified) | -10% |
| O=C(CSC1=NCCS1)N1CCOCC1 | -11% |
| Cc1cc(=O)[nH]c(SCC(=O)NC2CCCCCCC2)n1 | -10% |
| Cc1ccccc1C(=O)NNC(=O)C1CC(=O)N(Cc2ccccc2)C1 (stereo unspecified) | 4% |

Further records
| SMILES | VDR inhibitor |
| --- | --- |
| COc1ccc(-n2nnc3c(=O)n(Cc4cccc(C)c4)cnc32)cc1 | -15% |
| CCOC(=O)C1CCN(C(=O)Nc2ccc(Cl)cc2Cl)CC1 | -19% |
| O=C(CN1CCN(Cc2ccc(F)cc2)C1=O)NCc1ccc(F)cc1 | 17% |
| CCOc1ccc2nc(NCCNC(=O)C(C)(C)C)c(C)cc2c1 | 0% |
| NS(=O)(=O)c1ccc(NC(=O)c2ccc(S(=O)(=O)N3CCc4ccccc43)cc2)cc1 | 2% |
| Cc1noc(C)c1COc1ccccc1C(=O)NCCOc1ccccc1 | -12% |
| Cc1cccc(S(=O)Cc2ccc(C(=O)NC3CCN(Cc4ccccc4)CC3)o2)c1 (stereo unspecified) | -6% |
| COc1ccc(N2C(=O)C3CCCN3C2c2cccc(OC)c2)cc1 (stereo unspecified) | 0% |
| NS(=O)(=O)c1ccc(CCNCc2cccnc2)cc1 | 5% |
| O=C(Nc1ccc(F)c(Cl)c1)N1CCC(CN2CCOCC2)CC1 | 8% |
| COc1ccccc1/C=C/C(=O)OCC(=O)NCCC1=CCCCC1 | -5% |
| CC1(C)C(=O)N(CCN2CCC(C(=O)c3ccc(F)cc3)CC2)c2ccccc21 | -9%&-4% |
| CCn1c(=O)c2c(nc3n2CCN3c2ccc(OC)cc2)n(C)c1=O | 5% |

Screening data as filed in PubChem.
